From PubChem
eIF4H FP inh: human eIF4H binding inhibitors, primary screen, translation initiation inhibitor project, biochemical, uHTS, fluorescence polarization. Eukaryotic translation initiation factor 4H (Homo sapiens), Q15056. actives 0.94% (n = 290,000). inhibition, % at 35 µM. eIF4H fluorescence polarization binding assay;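 active means 50% or more with normal probe brightness, or confirmed in later tests; inconclusive means above 50% with abnormal brightness, or retests that disagree; inactive means below 50% or failed in later tests; about a fifth of its hits are not listed in these tables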;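 further: calls also rest on retests at 20 µM and on dose response follow-up; 0% = protein and probe with vehicle and 100% = probe without protein; strong numbers were not always called active; many hits fall short of the cut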
Env fusion inh: inhibitors of HIV-1 Env-driven cell-cell fusion, primary screen, HeLa-JRFL effector, CEM21 target cells, luciferase | inhibition, % at 12.3 µM | actives 1.1% (n = 360,000) | AID 651610, 2012;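 active means mean replicate inhibition score of at least 50 and every replicate individually at or above 50; inconclusive means only one of the two criteria met; inactive means mean below 50 and not all replicates reaching 50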;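 further: 0% = plate neutral controls and 100% = maraviroc near 300 nM; one replicate is shown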
UUG fidelity: modulators of yeast start codon fidelity, primary screen, whole organism, S. cerevisiae, single point, plate reader | S. cerevisiae UUG-firefly luciferase reporter, luminescence/redox ratio | activity score, % at 18.7 µM | actives 0.13% (n = 350,000) | AID 602363, 2012;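 active means replicate mean at a twofold rise or more, about +100% in these data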;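 further: firefly luciferase made from a UUG start codon reports start codon fidelity; reporter light over untreated wells divided by growth signal over untreated wells; some hits fall short of that in this replicate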
MT1-MMP act inh: blockers of MT1-MMP proenzyme processing, primary screen, HT1080 RFP-PRO-GFP cells, GFP/RFP fluorescence; Matrix metalloproteinase-14 (Homo sapiens), P50281; GFP/RFP ratio fluorescence, overnight; percent of plate control window, DMSO zero; GFP/RFP ratio change, % at 20 µM; actives 0.061% (n = 360,000);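 active means GFP/RFP ratio change of at least 30% with cell ATP level not reduced by more than half and red fluorescence within 50% of control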; further: strong numbers were not always called active
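Assay system: HT1080 RFP-PRO-GFP cells | Dosing: 20 µM single dose, 1% DMSO | Incubation: Cells overnight before dosing, compound overnight, 37 °C, 5% CO2 | Evaluation: GFP/RFP fluorescence ratio | Control set: DMSO-only wells and HT1080 RFP-L50D-GFP cell wells as references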
PABP FP inh: PABP poly(A) RNA binding inhibitors, primary screen, biochemical, fluorescence polarization, uHTS. Polyadenylate-binding protein 1 (Homo sapiens), P11940. inhibition, % at 35 µM. actives 1% (n = 290,000). AID 2014, 2009;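 active means 50% or more with normal probe brightness, or confirmed in later tests; inconclusive means above 50% with abnormal brightness, or retests that disagree; inactive means below 50% or failed in later tests; about a fifth of its hits are not listed in these tables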;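 further: calls also rest on retests at 20 µM and on dose response follow-up; controls were probe without protein and protein plus probe with vehicle; some compounds called inactive have numbers as strong as hits; many hits fall short of the cut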
Target sequence (P11940 whole entry, looked up): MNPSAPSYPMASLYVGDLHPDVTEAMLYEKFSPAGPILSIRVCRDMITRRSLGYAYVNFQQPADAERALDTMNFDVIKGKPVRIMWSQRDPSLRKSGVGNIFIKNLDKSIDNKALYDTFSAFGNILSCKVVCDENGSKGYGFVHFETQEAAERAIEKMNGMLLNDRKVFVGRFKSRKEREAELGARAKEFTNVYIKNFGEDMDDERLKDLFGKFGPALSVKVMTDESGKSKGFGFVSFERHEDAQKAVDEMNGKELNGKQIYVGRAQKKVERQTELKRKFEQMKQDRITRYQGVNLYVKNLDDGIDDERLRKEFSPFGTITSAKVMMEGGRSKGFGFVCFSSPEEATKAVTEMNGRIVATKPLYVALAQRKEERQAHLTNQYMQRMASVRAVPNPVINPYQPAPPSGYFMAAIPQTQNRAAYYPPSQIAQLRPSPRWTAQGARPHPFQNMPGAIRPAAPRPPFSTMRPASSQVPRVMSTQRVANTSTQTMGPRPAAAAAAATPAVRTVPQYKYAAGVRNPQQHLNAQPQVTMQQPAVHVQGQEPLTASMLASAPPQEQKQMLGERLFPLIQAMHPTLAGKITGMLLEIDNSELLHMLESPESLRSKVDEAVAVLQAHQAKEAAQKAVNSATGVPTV
CSC inhib: cancer stem cell viability inhibitors, primary screen, luminescence; cancer stem cell-like cells viability; actives 1.1% (n = 300,000); AID 2717, 2010; inhibition, % at 7.5 µM;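 active means mean at 75% or more and at least half the replicates too; inconclusive means mean and replicates disagree; tested in HMLE shEcad cells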;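 further: 0% = median of negative and 100% = median of positive control wells; the first replicate is given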
Rce1 inh: yeast Rce1p protease inhibitors, primary screen, biochemical, fluorescence, cell-free homogeneous; CAAX prenyl protease 2 (Saccharomyces cerevisiae (strain ATCC 204508 / S288c)), Q03530; calls only; actives 0.27% (n = 290,000); yeast membranes, quenched prenylated peptide cleavage fluorescence;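 active means fall in fluorescence gain of 50% or more versus controls, with final raw signal at or below 3038400; inconclusive means same 50% fall but final raw signal above 3038400; inactive means fall in fluorescence gain under 50%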;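 further: plate controls were neutral control wells for no effect and wells lacking membranes for full effect; tested at 10 µM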
Target sequence (Q03530 whole entry, looked up): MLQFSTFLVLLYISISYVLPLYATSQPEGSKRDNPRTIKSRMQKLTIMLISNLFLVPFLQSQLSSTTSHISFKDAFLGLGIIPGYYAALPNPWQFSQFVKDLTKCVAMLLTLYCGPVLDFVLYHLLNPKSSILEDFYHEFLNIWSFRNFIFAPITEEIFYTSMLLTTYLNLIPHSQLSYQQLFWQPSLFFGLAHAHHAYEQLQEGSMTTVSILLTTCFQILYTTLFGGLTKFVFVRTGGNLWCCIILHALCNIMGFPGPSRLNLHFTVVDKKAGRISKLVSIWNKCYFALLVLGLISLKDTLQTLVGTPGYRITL
eIF4H FP inh retest: recorded beside eIF4H FP inh, whose call it bears; inhibition, %; compound at 20 µM; confirmation average;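 mean of two retest wells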
PABP FP inh retest: also measured in PABP FP inh; calls as there; inhibition, %; compound at 20 µM; confirmation repeats;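 mean of two retest wells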
MT1-MMP act inh RFP: further read-out of MT1-MMP act inh, marked with its call; RFP signal change, %; measured here: RFP expression control read;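 0 = vehicle wells; hits needed this value within 50% of zero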
An asterisk follows results filed as active; i = inactive; ? = inconclusive; / = no result given.

SMILES	eIF4H FP inh	Env fusion inh	UUG fidelity	MT1-MMP act inh	MT1-MMP act inh RFP	PABP FP inh	CSC inhib	Rce1 inh	others
CCNc1nc(Cl)nc(NCc2ccccc2)n1	-10	-17	-10	1	1	-2	-1	i
CCOC(=O)C1CCCN(C(=O)CCNS(=O)(=O)c2ccc3c(c2)CCC(=O)N3)C1 (stereo not drawn)	6	-11	-16	-1	2	2	-6	i
CN(c1ccccc1)S(=O)(=O)c1cccc(NC(=O)c2ccncc2)c1	-10	9	/	-2	-29	2	-3	i
CCOC(=O)[C@@H]1[C@H]2COc3ccc(Br)cc3[C@@H]2N2C(=O)N(c3ccc(Cl)cc3)C(=O)[C@]12C	/	-20	-15	-4	-8	/	16	i
COc1ccc(N2C(=O)/C(=C\c3ccco3)N=C2SCC(N)=O)cc1Cl	32	21	1	-4	-1	0	-6	i
CCOc1ccc(NC(=O)CN2C(=O)COc3ccccc32)cc1	-5	-8	-11	0	0	5	4	i
CC1=Nc2ccccc2/C1=C\c1nc(-c2ccccc2)oc1O	126	-29	-18	3	7	120	6	i	eIF4H FP inh retest=-3;PABP FP inh retest=5
COc1ccccc1N1CCN(C(=S)NC(=O)/C=C/c2ccccc2)CC1	-5	7	/	5	-3	-2	-1	i
COCCN(C(=O)c1csnn1)C(C(=O)NC1CCCCC1)c1sccc1C (stereo not drawn)	5	-83	-18	4	7	12	-8	i
COc1ccc(C(=O)NC2CCCc3ccccc32)cc1S(=O)(=O)N1CCOCC1 (stereo not drawn)	-2	12	-9	5	4	1	-15	i
COc1cc(C(=O)Nc2ccc(N3CCN(C(=O)c4ccc(C)cc4)CC3)cc2)cc(OC)c1OC	3	14	-13	0	-2	11	7	i
COc1cc(OC)c(NC(=O)CNC(=O)Cn2ccc3ccccc3c2=O)cc1Cl	-8	9	-9	3	4	0	-6	/

Reprinted at random: three compounds from above.
SMILES	eIF4H FP inh	Env fusion inh	UUG fidelity	MT1-MMP act inh	MT1-MMP act inh RFP	PABP FP inh	CSC inhib	Rce1 inh	others
CCOC(=O)C1CCCN(C(=O)CCNS(=O)(=O)c2ccc3c(c2)CCC(=O)N3)C1 (stereo not drawn)	6	-11	-16	-1	2	2	-6	i
CCNc1nc(Cl)nc(NCc2ccccc2)n1	-10	-17	-10	1	1	-2	-1	i
COc1cc(C(=O)Nc2ccc(N3CCN(C(=O)c4ccc(C)cc4)CC3)cc2)cc(OC)c1OC	3	14	-13	0	-2	11	7	i

Remaining list, next part:
SMILES	eIF4H FP inh	Env fusion inh	UUG fidelity	MT1-MMP act inh	MT1-MMP act inh RFP	PABP FP inh	CSC inhib	Rce1 inh	others
COc1ccc(C(=O)Oc2cccc(Nc3ncnc4ccccc34)c2)cc1OC	0	23	-17	-13	-26	67	28	i	eIF4H FP inh retest=11;PABP FP inh retest=14
COc1ccc2nc(C)c(C(=O)NN)cc2c1	-2	-10	-3	1	3	-2	0	i
CN1C(=O)NC(c2ccccc2)C2=C1CN(CCc1ccccc1)C2=O (stereo not drawn)	-9	-86	5	18	-1	-7	/	i
NC(=S)NN=C(c1ccccc1)c1ccccc1	-7	-6	-34	1	-2	-1	-2	i
O=C(CSc1ccc(-c2ccncc2)nn1)c1ccc(Cl)cc1	-7	22	/	-3	-5	4	13	i
CCOc1ccc(S(=O)(=O)NCCC(=O)NCC2(N3CCCCC3)CCCCC2)cc1	94*	6	3	-3	2	51*	-1	i
COC(=O)c1ccc(C)c(NS(=O)(=O)c2ccc(OC)c(OC)c2)c1	-7	-56	-11	4	1	-1	-15	i
Nc1ccc(C(=O)c2cccs2)cc1[N+](=O)[O-]	-3	-21	/	-2	0	-1	-8	i
COc1cc(/C=C(\C#N)c2nc3ccccc3[nH]2)ccc1OC(=O)c1ccco1	?	-60	/	-126	-2	2	17	i
CN1CCc2c(sc3nc(SCC(=O)N4CCCCC4)n(-c4ccccc4)c(=O)c23)C1	-1	10	4	-4	1	16	-4	i
O=C(NCc1cccs1)C(=O)c1cn(CC(=O)N2CCCC2)c2ccccc12	-2	8	-11	-4	0	3	-9	i
O=C(Nc1cc(Cl)ccc1N1CCOCC1)c1ccc(N2CCCC2=O)cc1	/	-64	/	-5	-9	/	2	i
Cc1ccccc1C(C)NS(=O)(=O)c1ccc2c(c1)OCCO2 (stereo not drawn)	/	4	-3	0	3	/	-10	/
COCc1nc2oc3ccc(C)cc3c(=O)c2cc1C(=O)OC	-4	-27	-22	-2	-3	7	-7	i
O=C(Nc1cccc(Cl)c1)c1cccc(Oc2ccc([N+](=O)[O-])cc2Cl)c1	13	26	-12	3	-2	1	63	i
O=C(O)CC(NC(=O)COc1ccc(Cl)cc1Cl)C(=O)O (stereo not drawn)	-5	/	-20	-7	-6	-5	-5	i
Nc1nnc(CSCc2ccccc2Cl)s1	7	8	-5	-4	3	-7	-9	i
CCn1cnc2c1c(=O)n(Cc1nnc3n1-c1ccccc1SC3)c(=O)n2Cc1ccccc1	1	/	-5	1	-1	-6	-10	i
CC(=O)Nc1ccccc1-c1nc2ccccc2nc1OCC(=O)c1ccc2ccccc2c1	-9	-66	-22	-11	-4	-2	9	i
Cc1ccc(NS(=O)(=O)c2ccc(Br)s2)nc1	-14	8	/	-10	-1	-12	-3	i
COc1cccc(NC(=O)C(c2ccccc2)N2CCCCC2)c1 (stereo not drawn)	8.5*	19	/	-2	0	96*	/	i	eIF4H FP inh retest=95*;PABP FP inh retest=90*
COc1ccc(C2CC2/C(=N/O)c2ccccc2)cc1 (stereo not drawn)	-13	-29	/	1	0	9	-11	i
Cc1ccc(NC(=O)Cn2c(C)cc(C)c(C#N)c2=O)c(Cl)c1	-1	-11	/	4	3	0	12	i
Clc1ccc(N2CCN(c3ccnc(Cl)n3)CC2)cc1	/	1	/	6	-10	/	2	i
COc1ccc(CCNC(=O)CSC2=NS(=O)(=O)c3ccccc3N2)cc1OC	/	-2	-22	-3	2	/	-7	i
CCOc1ccc(S(=O)(=O)NC2CCCCC2C)cc1 (stereo not drawn)	-7	18	-1	-2	-2	-2	4	i
O=C(Nc1ccc(Cl)c(Cl)c1)c1ccc(Cl)c(Cl)c1	-5	-22	-19	-4	-3	1	14	i
CCOc1ccc(CCNC(=O)CCS(=O)(=O)c2ccc(C)cc2)cc1OCC	-1	-11	4	-1	-4	-2	-2	i
CCOC(=O)c1nnn(-c2nonc2N)c1CSc1ccccc1	-5	1	-9	5	0	4	-3	i
CN(C)c1cc(N/N=C/c2ccccc2C(F)(F)F)nc(N(C)C)n1	0	2	-4	-9	-8	-14	29	i
CCN(CC)C(=O)C12CC3CC(CC(Cl)(C3)C1)C2	4	27	/	0	2	14	-17	i
CC(C)NC(=O)COc1cccc2ccccc12	0	9	/	1	-2	8	-12	i
O=C(CCC(=O)OCc1ccc([N+](=O)[O-])cc1)Nc1ccccc1Cl	0	7	/	-5	2	-4	-3	i
C=CCSc1nc2c(c(=O)[nH]c(=O)n2C)n1C/C=C(/C)Cl	2	/	-16	3	-2	2	2	i
O=C1CC(c2ccccc2Oc2cccc(Cl)c2)C(n2cncn2)C(=O)C1C1NCCc2ccccc21 (stereo not drawn)	-6	9	/	1	1	-13	5	i
O=C(/C=C/c1cccc(F)c1)NCCCn1ccnc1	4	-12	-19	2	3	-4	2	i

By substructure, the entries above containing fluorine.
SMILES	eIF4H FP inh	Env fusion inh	UUG fidelity	MT1-MMP act inh	MT1-MMP act inh RFP	PABP FP inh	CSC inhib	Rce1 inh	others
CN(C)c1cc(N/N=C/c2ccccc2C(F)(F)F)nc(N(C)C)n1	0	2	-4	-9	-8	-14	29	i
O=C(/C=C/c1cccc(F)c1)NCCCn1ccnc1	4	-12	-19	2	3	-4	2	i

(continued)
SMILES	eIF4H FP inh	Env fusion inh	UUG fidelity	MT1-MMP act inh	MT1-MMP act inh RFP	PABP FP inh	CSC inhib	Rce1 inh	others
O=C1NC(c2cccc(Br)c2)=N/C1=C\c1ccco1	84	-58	/	0	9	34	-5	i	eIF4H FP inh retest=1;PABP FP inh retest=-2
Cc1[nH]c2ccc(C(=O)NCCCN3CCCC3)cc2c1C	-7	-15	-7	1	4	2	-12	i
CCN1CCN(C(=O)c2ccccc2NC(=O)c2ccc(Cl)cc2)CC1	-16	2	21	3	9	-8	-1	i
O=C(NCc1ccco1)c1ccc(COc2ccccc2Cl)cc1	5	/	-15	-2	-3	2	35	i
Cc1cc(C)cc(OCC(=O)N(Cc2ccc(N(C)C)cc2)C2CCS(=O)(=O)C2)c1 (stereo not drawn)	6	9	/	2	0	7	-5	i
CN(CC(=O)Nc1ccccc1Br)C(=O)c1cccnc1Nc1cccc(C(F)(F)F)c1	-8	26	13	1	-10	4	/	i
CCNc1nnc(-c2ccccc2OC)s1	1	/	/	/	/	3	1	i
CC(CCc1ccccc1)NC(=O)CN1CCN(c2ccccc2)CC1 (stereo not drawn)	-11	-5	-7	-1	1	-1	-4	i
NC(=S)n1[nH]c(-c2ccc([N+](=O)[O-])cc2)c(N=Nc2cccc(Cl)c2)c1=O	89	57*	/	-2	-39	0	/	i	eIF4H FP inh retest=20;PABP FP inh retest=16
CCN(C(C)=O)c1ccc(Oc2nc(OC)cc(OC)n2)cc1	-3	-5	/	2	2	2	-44	i
CCC1(C)Cc2nc3[nH]c(=S)n(-c4ccccc4C)c(=O)c3cc2CO1 (stereo not drawn)	3	6	/	2	-7	4	-7	i
COc1ccc2c(c1)oc(=O)c1c3ccccc3[nH]c21	26	-55	-18	0	-18	3	/	i

Structural class, those above containing a thiophene ring, fused or not (five)
SMILES	eIF4H FP inh	Env fusion inh	UUG fidelity	MT1-MMP act inh	MT1-MMP act inh RFP	PABP FP inh	CSC inhib	Rce1 inh	others
COCCN(C(=O)c1csnn1)C(C(=O)NC1CCCCC1)c1sccc1C (stereo not drawn)	5	-83	-18	4	7	12	-8	i
Nc1ccc(C(=O)c2cccs2)cc1[N+](=O)[O-]	-3	-21	/	-2	0	-1	-8	i
CN1CCc2c(sc3nc(SCC(=O)N4CCCCC4)n(-c4ccccc4)c(=O)c23)C1	-1	10	4	-4	1	16	-4	i
O=C(NCc1cccs1)C(=O)c1cn(CC(=O)N2CCCC2)c2ccccc12	-2	8	-11	-4	0	3	-9	i
Cc1ccc(NS(=O)(=O)c2ccc(Br)s2)nc1	-14	8	/	-10	-1	-12	-3	i

(more compounds)
SMILES	eIF4H FP inh	Env fusion inh	UUG fidelity	MT1-MMP act inh	MT1-MMP act inh RFP	PABP FP inh	CSC inhib	Rce1 inh	others
CCOC(=O)N1CCN(S(=O)(=O)c2ccc(C)c(C)c2C)CC1	-2	/	49	1	-1	8	-13	/
CCOC(=O)C1CCCN(C(=O)c2cccc(NC(=O)C(CC)CC)c2)C1 (stereo not drawn)	2	-7	/	-5	-1	-6	-8	i
COc1cccc(Nc2nc(-c3cccc(N4C(=O)c5ccccc5C4=O)c3)cs2)c1	43	-105	-21	-1	4	30	30	i
CCN(CC)C(=O)Cn1cc(C(=O)C(=O)NCC2COc3ccccc3O2)c2ccccc21 (stereo not drawn)	2	4	/	-3	-3	4	-14	i

Not all compounds are listed; the hit share may differ from the screen's.
